Compound activity: PubChem, several laboratories
HIV Env fusion = HIV envelope-mediated fusion inhibition; HeLa-JRFL Env/CEM21 cell fusion, luciferase; inhibition, % at 12.3 µM; 360,000 compounds, 1.1% hits; AID 651610;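 active means mean replicate inhibition score of at least 50 and every replicate individually at or above 50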;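 further: 0% = plate neutral controls and 100% = maraviroc near 300 nM; one replicate is shown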
MT1-MMP act inh = blocks activation of human MT1-MMP | 360,000 compounds, 0.061% hits | HT1080 RFP-PRO-GFP cells, GFP/RFP ratio fluorescence, overnight; percent of plate control window, DMSO zero | P50281 | GFP/RFP ratio change, % at 20 µM | AID 651647;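 active means GFP/RFP ratio change of at least 30% with cell ATP level not reduced by more than half and red fluorescence within 50% of control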; further: strong numbers were not always called active
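Test system: HT1080 RFP-PRO-GFP cells; Benchmarks: DMSO and RFP-L50D-GFP cell wells; Timing: cells overnight before dosing, compound overnight, 37 °C, 5% CO2; Compound: one 20 µM compound dose with 1% DMSO; Read-out: GFP/RFP fluorescence ratio.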
MT1-MMP act inh RFP = further read-out of MT1-MMP act inh, marked with its call; RFP signal change, %; measured here: RFP expression control read;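 0 = vehicle wells; hits needed this value within 50% of zero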
The depositor's hits bear a star. Some of the compounds tested; rates above refer to the full screens.

`Oc1ccc(C=NNc2ccccn2)c(O)c1` gave HIV Env fusion 69.1*, MT1-MMP act inh -3.2 and MT1-MMP act inh RFP -3.1.
CCCCCNC(=O)C(c1cccc2ccccc12)n1c(=O)c(-c2ccco2)nc2ccccc21 (stereo unspecified) was read as HIV Env fusion -16.5, MT1-MMP act inh -3.1 and MT1-MMP act inh RFP 4.5.
Screening CCOC(=O)[C@]12CCCC=C1N(Cc1ccccc1)C(=O)[C@H](CC(=O)NCCc1ccccc1OC)C2 returned HIV Env fusion -5.7, MT1-MMP act inh -3.6 and MT1-MMP act inh RFP -3.9.
`O=S1(=O)CC(N2CCN(Cc3ccccc3F)CC2)CN1Cc1cn(Cc2ccc(C(F)(F)F)cc2)nn1` (stereo unspecified) gave HIV Env fusion -20.4, MT1-MMP act inh 1.8 and MT1-MMP act inh RFP -23.3.
Screening CCCCn1cnc2c(SCc3ccccc3F)nc(N)nc21 returned HIV Env fusion -12.5, MT1-MMP act inh 5.5 and MT1-MMP act inh RFP 1.0.
Screening COc1cccc(CNC(=O)[C@@H]2CCCN2C(=O)[C@@H]2CCCN2C(=O)c2cccc(OC)c2)c1 returned HIV Env fusion 13.4, MT1-MMP act inh 8.5 and MT1-MMP act inh RFP 6.4.
Cc1nc(NC(=O)c2ccccc2)sc1-c1cc(C(=O)N2CCOCC2)nn1CCO was read as HIV Env fusion -4.4, MT1-MMP act inh 9.3 and MT1-MMP act inh RFP 1.4.
Screening COc1cccc(CNC(=O)[C@@H]2CCCN2C(=O)[C@H]2CCCCN2)c1 returned HIV Env fusion 14.3, MT1-MMP act inh -1.2 and MT1-MMP act inh RFP 2.1.
`O=C(NCc1cccs1)C1C(=O)Nc2ccccc2C(=O)N1C1CCCC1` (stereo unspecified) gave HIV Env fusion -11.5, MT1-MMP act inh 2.8 and MT1-MMP act inh RFP 3.9.
For Oc1ccccc1C=NN=C1c2ccccc2-c2ccccc21 the results were HIV Env fusion -15.8, MT1-MMP act inh 2.9 and MT1-MMP act inh RFP 2.8.
For O=C(NCc1ccccc1)C(c1ccc(C(F)(F)F)cc1)n1c(=O)c(-c2ccco2)nc2ccccc21 (stereo unspecified) the results were HIV Env fusion -1.6, MT1-MMP act inh -2.2 and MT1-MMP act inh RFP 2.5.
Cc1nnc(SCC(=O)NC2CCCCC2)n1N was read as HIV Env fusion -11.8, MT1-MMP act inh -1.6 and MT1-MMP act inh RFP 2.5.
For O=C(Nc1ccc2c(c1)OCCO2)C(c1ccnc2ccccc12)n1c(=O)c(-c2ccco2)nc2ccccc21 (stereo unspecified) the results were HIV Env fusion 2.0, MT1-MMP act inh -2.3 and MT1-MMP act inh RFP -0.8.
`CC(C)C[C@@H](COCc1ccc(F)cc1)N1CCN(C(=O)c2cccc(C(F)(F)F)c2)CCC1=O` gave HIV Env fusion 5.9, MT1-MMP act inh -1.7 and MT1-MMP act inh RFP -2.3.
Screening Cc1cccc(C)c1-n1nnnc1C1(C)CCC(=O)N1CC1CCCCC1 (stereo unspecified) returned HIV Env fusion -6.5, MT1-MMP act inh 0.7 and MT1-MMP act inh RFP -0.2.
Screening Cc1noc(NS(=O)(=O)c2ccc(NC(=O)c3cc(F)c(F)c(F)c3F)cc2)c1C returned HIV Env fusion -12.4, MT1-MMP act inh -1.7 and MT1-MMP act inh RFP -4.0.
O=C(C1=NOC2(C1)C(=O)Nc1ccccc12)N1CCOCC1 (stereo unspecified) was read as HIV Env fusion 0.6, MT1-MMP act inh 3.9 and MT1-MMP act inh RFP 3.7.
Cc1ccccc1CN1C(=O)CSCC1(C)C(=O)NCc1ccccc1 (stereo unspecified) was read as HIV Env fusion -16.9, MT1-MMP act inh 2.9 and MT1-MMP act inh RFP 1.0.
Cn1c(=O)c2[nH]c(CN3CCCCC3)nc2n(C)c1=O was read as HIV Env fusion -14.4, MT1-MMP act inh -2.3 and MT1-MMP act inh RFP 0.7.
`CCOC(=O)[C@]12CCCC=C1N(Cc1ccc3c(c1)OCO3)C(=O)[C@H](CC(=O)N1CCC(c3ccccc3)CC1)C2` gave HIV Env fusion 23.7, MT1-MMP act inh 0.7 and MT1-MMP act inh RFP -9.3.

The closing 5 records of the part before come first, to join the parts:
Screening Cc1noc(NS(=O)(=O)c2ccc(NC(=O)c3cc(F)c(F)c(F)c3F)cc2)c1C returned HIV Env fusion -12.4, MT1-MMP act inh -1.7 and MT1-MMP act inh RFP -4.0.
O=C(C1=NOC2(C1)C(=O)Nc1ccccc12)N1CCOCC1 (stereo unspecified) was read as HIV Env fusion 0.6, MT1-MMP act inh 3.9 and MT1-MMP act inh RFP 3.7.
Cc1ccccc1CN1C(=O)CSCC1(C)C(=O)NCc1ccccc1 (stereo unspecified) was read as HIV Env fusion -16.9, MT1-MMP act inh 2.9 and MT1-MMP act inh RFP 1.0.
Cn1c(=O)c2[nH]c(CN3CCCCC3)nc2n(C)c1=O was read as HIV Env fusion -14.4, MT1-MMP act inh -2.3 and MT1-MMP act inh RFP 0.7.
`CCOC(=O)[C@]12CCCC=C1N(Cc1ccc3c(c1)OCO3)C(=O)[C@H](CC(=O)N1CCC(c3ccccc3)CC1)C2` gave HIV Env fusion 23.7, MT1-MMP act inh 0.7 and MT1-MMP act inh RFP -9.3.
Screening O=C(O)COc1ccc(NC(=O)c2ccc3c(c2)C(=O)N(CC2CCCO2)C3=O)cc1 (stereo unspecified) returned HIV Env fusion -119.6, MT1-MMP act inh -1.6 and MT1-MMP act inh RFP 4.8.
CCCCNC(=O)C1c2ccccc2OCC(=O)N1Cc1ccco1 (stereo unspecified) was read as HIV Env fusion 9.5, MT1-MMP act inh 1.5 and MT1-MMP act inh RFP 2.0.
Screening CC(=O)Nc1c(Cl)cc2c(c1Cl)Cc1cc(C#N)ccc1-2 returned HIV Env fusion -13.7, MT1-MMP act inh 5.3 and MT1-MMP act inh RFP -1.2.
Screening O=C(CC1Sc2ccccc2NC1=O)NNc1ccc(Cl)c(Cl)c1 (stereo unspecified) returned HIV Env fusion 5.3, MT1-MMP act inh 9.7 and MT1-MMP act inh RFP 1.7.
Screening CCOC(=O)[C@]12CCC=C1N(CCC1=CCCCC1)C(=O)[C@H](CC(=O)NCC1CCCCC1)C2 returned HIV Env fusion 22.4, MT1-MMP act inh 1.3 and MT1-MMP act inh RFP 0.5.
Screening Cc1ccc(S(=O)(=O)N2CCC(=O)N([C@H](COCc3ccc(C(F)(F)F)cc3)Cc3ccccc3)CC2)cc1 returned HIV Env fusion 14.5, MT1-MMP act inh -0.9 and MT1-MMP act inh RFP -13.6.
Screening CC(CNC(=O)CN1C(=O)NC2(CCCCC2C)C1=O)c1ccccc1 (stereo unspecified) returned HIV Env fusion -5.6, MT1-MMP act inh -13.5 and MT1-MMP act inh RFP 2.3.
`Nc1ccc(Cn2ccc3c4c(N)nc(N)nc4ccc32)cc1` gave HIV Env fusion 28.6, MT1-MMP act inh -6.8 and MT1-MMP act inh RFP -3.3.
Screening COC(=O)c1ccc2nc(-c3ccc(Cl)cc3)c(Cc3ccsc3)n2c1 returned HIV Env fusion -14.7, MT1-MMP act inh 1.3 and MT1-MMP act inh RFP -6.5.
Screening CCSC(=O)N=Nc1ccc(O)cc1 returned HIV Env fusion 5.2, MT1-MMP act inh 4.7 and MT1-MMP act inh RFP 1.9.
COC(=O)Cc1ccccc1NS(=O)(=O)c1ccc(C)cc1 was read as HIV Env fusion -1.0, MT1-MMP act inh 2.7 and MT1-MMP act inh RFP 2.4.
Screening COc1ccc(C(=O)NCCN(C)C)c2nc3ccccc3cc12 returned HIV Env fusion -200.5, MT1-MMP act inh 13.8 and MT1-MMP act inh RFP 1.4.
Screening COC(=O)[C@]12CCCCC=C1N(CCc1ccc(OC)c(OC)c1)C(=O)[C@H](CC(=O)NCCCCc1ccccc1)C2 returned HIV Env fusion -53.6, MT1-MMP act inh -2.9 and MT1-MMP act inh RFP -9.5.
`CC(=O)N(C)c1ccc(C=C2C=Cc3ccccc32)cc1` gave HIV Env fusion -231.9, MT1-MMP act inh 5.2 and MT1-MMP act inh RFP -3.9.
CC(C)Sc1nc(-c2cccs2)nc2cc(Cl)ccc12 was read as HIV Env fusion -32.5, MT1-MMP act inh 2.4 and MT1-MMP act inh RFP 2.6.
For Cc1cc(C)n(-c2nc3c(c(=O)n(C)c(=O)n3C)n2Cc2cccc(Br)c2)n1 the results were HIV Env fusion 9.2, MT1-MMP act inh 2.2 and MT1-MMP act inh RFP -0.1.
Screening COc1ccc(NC(=O)C2C(c3ccc4c(c3)OCO4)=Nc3ccccc3N2C(C)=O)cc1 (stereo unspecified) returned HIV Env fusion -39.7, MT1-MMP act inh 1.3 and MT1-MMP act inh RFP 2.3.
For COc1ccc(C(=O)C[C@@H]2OC[C@H](C)N2S(=O)(=O)c2ccc(C)cc2)cc1OC the results were HIV Env fusion -3.1, MT1-MMP act inh 3.0 and MT1-MMP act inh RFP -11.6.
For COCCN1C(=O)CCC1(C)c1nnnn1-c1ccc2ccccc2c1 (stereo unspecified) the results were HIV Env fusion 1.6, MT1-MMP act inh 1.0 and MT1-MMP act inh RFP 6.6.
For Cc1ccc(S(=O)(=O)N2C[C@@]3(O)Cn4c(=O)ccc(=O)n4C[C@@]3(OC(=O)NCc3ccccc3F)C2)cc1 the results were HIV Env fusion 2.4, MT1-MMP act inh 7.7 and MT1-MMP act inh RFP 4.2.
`CC(C)C[C@@H]1COc2cccc(N3CCC[C@H]3CO)c2S(=O)(=O)N1` gave HIV Env fusion 5.0, MT1-MMP act inh -3.4 and MT1-MMP act inh RFP 0.5.
Screening CC(C)(C)OC(=O)N1CCCN(C(c2ccnc3ccccc23)c2nnnn2-c2ccc3c(c2)OCCO3)CC1 (stereo unspecified) returned HIV Env fusion 0.9, MT1-MMP act inh -1.7 and MT1-MMP act inh RFP -6.8.
Screening COCCCNC(=O)C[C@@H]1C[C@@]2(C(=O)OC)CCCCC=C2N(Cc2ccc(Cl)cc2Cl)C1=O returned HIV Env fusion 29.5, MT1-MMP act inh -4.0 and MT1-MMP act inh RFP -3.5.
C=C1C(=O)CC2=C1[C@](Cc1ccc(F)cc1)(C(=O)OC)N(C(=O)c1ccccc1)C2 was read as HIV Env fusion -58.2, MT1-MMP act inh 4.2 and MT1-MMP act inh RFP 3.4.
`Cc1ccc(S(=O)(=O)Nc2ccccc2NS(=O)(=O)c2ccc(C)cc2)cc1` gave HIV Env fusion 2.0, MT1-MMP act inh -2.7 and MT1-MMP act inh RFP -8.4.
Cc1cccc(C)c1NC(=O)C1C(c2ccc3c(c2)OCO3)=Nc2ccccc2N1C(=O)c1ccccn1 (stereo unspecified) was read as HIV Env fusion 2.6, MT1-MMP act inh -4.3 and MT1-MMP act inh RFP 0.2.
Screening COc1cccc(-c2nc3nc(C)cc(C)n3c2Nc2c(C)cccc2C)c1 returned HIV Env fusion -67.1, MT1-MMP act inh -16.5 and MT1-MMP act inh RFP 5.1.
Screening CC1(C(=O)NS(=O)(=O)c2ccccc2)CCN1C(=O)CC1CC1 (stereo unspecified) returned HIV Env fusion 3.5, MT1-MMP act inh -0.3 and MT1-MMP act inh RFP 2.2.
For Cc1ccc2ccc(C(Nc3ccccc3)c3ccc(F)cc3)c(O)c2n1 (stereo unspecified) the results were HIV Env fusion -43.9, MT1-MMP act inh 0.4 and MT1-MMP act inh RFP -31.5.
For Cc1ccc(S(=O)(=O)N2[C@H](CC(=O)c3cccc4ccccc34)OC[C@@H]2C(C)C)cc1 the results were HIV Env fusion -6.9, MT1-MMP act inh -11.3 and MT1-MMP act inh RFP -12.5.
For COC(=O)[C@@]12C[C@@H](CC(=O)N3CCC(c4ccccc4)CC3)C(=O)N(Cc3ccccc3)C1=CCC(C)(C)C2 the results were HIV Env fusion 0.6, MT1-MMP act inh -8.3 and MT1-MMP act inh RFP -14.2.
Screening CCCc1c(-c2ccc(F)cc2)ncn1CCc1ccccc1OC returned HIV Env fusion 4.2, MT1-MMP act inh -4.7 and MT1-MMP act inh RFP -14.8.
Screening CS(=O)(=O)c1ccc(Cl)c(NC(=O)CN2CCN(C(=O)c3cccs3)CC2)c1 returned HIV Env fusion -10.6, MT1-MMP act inh 3.0 and MT1-MMP act inh RFP -2.8.
`COc1ccc(NS(=O)(=O)c2cccc(C(=O)N/N=C(/C)c3ccc(-n4ccnc4)cc3)c2)cc1` gave HIV Env fusion 3.7, MT1-MMP act inh 0.0 and MT1-MMP act inh RFP -0.7.
For CC(C)(C)n1nnnc1C(c1ccccc1)N1CCN(C(=O)C2CCCO2)CC1 (stereo unspecified) the results were HIV Env fusion 52.6, MT1-MMP act inh 2.7 and MT1-MMP act inh RFP 1.9.
`Cc1ccc2c(c1)C(=C(C#N)C#N)CCN2` gave HIV Env fusion 76.1*, MT1-MMP act inh -53.1 and MT1-MMP act inh RFP 5.5.
`Cc1cccc(C)c1NC(=O)C(c1cccc(F)c1)N1CCN(C)CC1` (stereo unspecified) gave HIV Env fusion 8.7, MT1-MMP act inh 0.2 and MT1-MMP act inh RFP 4.6.
For O=c1[nH]cc(F)c(=O)n1C1OC(CO)C(O)C1O (stereo unspecified) the results were HIV Env fusion 8.0, MT1-MMP act inh 12.4 and MT1-MMP act inh RFP 8.4.
Screening COc1ccc2cc(C3CC=C(COC(C)=O)CN3S(=O)(=O)c3ccccc3[N+](=O)[O-])n(C(=O)OC(C)(C)C)c2c1 (stereo unspecified) returned HIV Env fusion 43.7, MT1-MMP act inh -5.7 and MT1-MMP act inh RFP -4.1.
Cc1ccc(S(=O)(=O)NCc2ccccc2NS(=O)(=O)c2ccc(C)cc2)cc1 was read as HIV Env fusion 18.7, MT1-MMP act inh 2.0 and MT1-MMP act inh RFP -4.6.
Screening O=S1(=O)N[C@H](Cc2ccccc2)COc2cccc(N3CCSCC3)c21 returned HIV Env fusion -0.9, MT1-MMP act inh 1.8 and MT1-MMP act inh RFP -0.5.
